Screening data from PubChem BioAssay.
Autofluor counter = compound fluorescence in toxin protease inhibitor counterscreen; actives 3.1% (n = 360,000); fluorescence intensity (test concentration not listed); compound autofluorescence counterscreen, microsphere flow cytometry; stronger effect = higher value;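 active = at least 3 SD above the mean of all compounds, about 16000 in these data; inconclusive = too few beads counted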;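 also: 100 nL of 1 mM stock went into each well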
ugtP null kill = growth inhibition of S. aureus ugtP deletion strain | S. aureus RN4220 ugtP deletion, OD600 growth, 16 h; some inactives read as strong as hits | growth inhibition, % (concentration not given with the values) | actives 0.54% (n = 330,000) | AID 1259309;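 active = z-score under -3 and OD600 up to 0.15 on both plates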;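 also: plate controls were untreated wells for no effect and antibiotic for full effect; wells of about 80 µL received 100 nL stock; the first replicate is given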
Mtb hypoxia rep = Mtb hypoxia fluorescent reporter inhibition | fluorescence inhibition, % (no concentration beside the values) | M. tuberculosis hypoxia-regulated fluorescent reporter, fluorescence | actives 0.1% (n = 300,000);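 active = 35 to 45% if threefold the growth effect, above 45% if 1.5-fold the growth effect; inactive = the rest, general growth blockers included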;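 also: wells of about 50 µL received 100 nL stock; 0% = vehicle wells and 100% = reference inhibitor wells; whole bacteria with a GFP reporter of the hypoxia response; strong numbers were not always called active; many hits fall short of the cut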
PrP 5UTR inh = inhibition of PrP 5' UTR reporter expression. inhibition, % (no concentration beside the values). actives 0.35% (n = 340,000). cell-based PrP 5' UTR mRNA reporter, plate reader. AID 488862;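 active = every replicate at 50% or more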;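 also: 0 = median of the neutral control wells; tested in H4 reporter cells; numbers are from one replicate; inactives centre near -14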
BJeLR viability = kills HRASV12-expressing BJeLR cells. BJeLR (HRASV12) viability, CellTiter-Glo ATP luminescence, 48 h; reference of the scale not given here. inhibition, % (concentration not given with the values). actives 0.17% (n = 300,000);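 active = replicate mean above 50%; inconclusive = above 50% but judged a plate artefact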;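 also: 50 nL library stock added to about 25 µL; numbers are from one replicate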
RN4220 kill = S. aureus RN4220 growth inhibition. OD600, 16 h. inhibition, % (test concentration not listed). actives 0.33% (n = 330,000). AID 1259311;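 active = z-score of -3 or lower and OD600 up to 0.18 on both plates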;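 also: plate controls were untreated cells for no effect and reference antibiotic for full effect; stock transfer was 100 nL into about 80 µL; one replicate is shown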
Mtb hypoxia rep growth = recorded beside Mtb hypoxia rep, whose call it bears; growth inhibition, %; measured here: M. tuberculosis growth (absorbance);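 0% = vehicle and 100% = reference antibiotic; read after six days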
* hit, by the source's call; ? = inconclusive; . = no result given.

The line under a structure holds: Autofluor counter	ugtP null kill	Mtb hypoxia rep	Mtb hypoxia rep growth	PrP 5UTR inh	BJeLR viability	RN4220 kill
Cc1cccc2sc(NC(=O)CN3C(=O)C4CC=CCC4C3=O)nc12 (centres undefined)
  1976	-1.3	9.1	7.8	-44.3	-16.0	5.6
COc1ccc(CCNC(=S)NCc2cccs2)cc1OC
  4120	5.5	12.0	17.7	-12.7	1.7	3.7
Cc1cccc(CNC(=O)c2cc(S(=O)(=O)N3CCOCC3)cn2C)c1
  5074	2.6	12.9	0.6	-9.6	4.4	1.0
C/C(=N/Nc1ccc([N+](=O)[O-])cc1)c1ccc(C)cc1C
  2424	.	.	.	-25.3	2.7	.
Cc1c(N=C(N)/N=C(\N)Nc2ccc(Br)cc2)c(=O)n(-c2ccccc2)n1C
  1978	.	.	.	-26.5	3.0	.
O=C1CCN(C(=O)c2ccc(Cl)cc2)N1
  2852	6.1	10.5	6.9	-19.1	-0.2	3.1
COc1ccc(S(=O)(=O)N2CC(=O)Nc3ccccc32)cc1Cl
  4128	10.1	4.9	12.8	-31.7	-7.6	2.0
CCN1CCN(C(=O)C2CCC(=O)N(CCCN3CCCC3=O)C2)CC1 (centres undefined)
  4959	4.9	10.4	6.2	-13.3	3.5	1.0
Cc1cc(C)nc(NS(=O)(=O)c2ccc(NC(=O)C3(c4ccccc4)CCCC3)cc2)n1
  2012	0.7	-9.3	12.6	-13.6	20.2	1.3
Cc1cc(=O)oc2cc(OCC(=O)N3CCN(c4ccc(F)cc4)CC3)ccc12
  5913	-4.6	-3.1	8.9	-10.4	2.9	-2.8
Cc1cc(NC(=O)CSc2nc3cc(Cl)ccc3s2)no1
  3414	6.6	12.5	5.9	-19.1	8.2	0.1
Cc1cc(C)c(S(=O)(=O)n2cc(C(C)C(N)C(=O)O)c3ccccc32)c(C)c1 (centres undefined)
  3757	-10.0	14.9	12.5	-11.3	2.4	4.5
COc1ccccc1N1CCN(CCN2C(=O)CC(=C3c4ccccc4-c4ccccc43)C2=O)CC1
  .	-7.1	2.3	7.4	.	7.5	-3.3
C=CCNC(=O)c1ccc(OC)cc1OC
  4205	-4.6	10.1	7.2	-13.4	-8.3	5.0
Cc1[nH]nc(Sc2ccccn2)c1[N+](=O)[O-]
  2493	1.2	0.3	12.9	-2.2	-0.2	5.8
O=C(Nn1c(C2CCC2)nc2ccccc2c1=O)C1CCC1
  16974*	8.5	-1.1	-7.6	-9.5	-13.8	2.1
O=C(c1noc2c1CCCC2)N1CCN(c2ccc(F)cc2)CC1
  11892	1.5	.	.	-10.0	6.9	2.2
Fc1ccc(-n2c(-c3cc(C4CC4)[nH]n3)n[nH]c2=S)cc1Cl
  3385	-4.9	9.5	4.0	-14.1	-4.4	8.0
CC(=O)Nc1cccc(NC(=O)CSc2nnc(NC(=O)C3CC3)s2)c1
  4185	7.4	5.9	-9.2	-20.9	-10.9	2.6
O=C(NCCCn1ccnc1)/C(=C\c1ccc(Br)cc1)NC(=O)c1ccccc1F
  4324	10.6	4.6	-0.1	-13.0	3.3	3.9
C/C=C/C(=O)OCC(=O)Nc1c(Cl)cccc1Cl
  16870*	9.7	7.8	4.6	-9.8	3.0	3.9
CCOc1ccc(C2NC(=O)c3ccccc3O2)cc1 (centres undefined)
  3318	0.8	-0.4	3.6	-31.9	1.6	6.2
COc1ccc(C=NNS(=O)(=O)c2ccc(F)cc2)cc1COc1cc(F)ccc1[N+](=O)[O-]
  .	12.6	19.6	5.1	.	.	19.0
Cc1ccccc1NC(=O)COC(=O)Cc1ccsc1
  2492	-8.8	-0.1	2.5	-19.2	5.8	-0.8
Cc1cc(C)c(C)c(S(=O)(=O)N2CCC(C(=O)N3CCCCCCC3)CC2)c1C
  5987	-7.2	-4.7	2.4	-5.9	3.4	-0.3
CC1CCCCC12NC(=O)N(CC(=O)OCc1ccccc1Cl)C2=O (centres undefined)
  4529	9.9	7.5	-1.0	-13.3	.	8.4
NC(=O)C1CCN(C(=O)c2ccc3c(=O)n(Cc4ccco4)c(SCc4ccc([N+](=O)[O-])cc4)nc3c2)CC1
  4038	1.9	-6.2	-3.1	11.3	-10.4	0.8
Cc1ccccc1CS(=O)(=O)c1cn(CC(=O)N2CCC(C)CC2)c2ccccc12
  11649	9.6	10.4	5.6	-44.3	-3.9	6.3
CC(=O)c1ccc(NC(=O)C2CCN(S(=O)(=O)c3cccnc3)CC2)cc1
  6588	6.3	-6.5	0.1	-13.2	9.2	1.3
CC1CCCCN1C(=O)Nc1cccc(Cl)c1 (centres undefined)
  ?	-4.2	20.3	5.6	-20.8	3.6	3.0
COc1ccc(CC2(CO)CCN(Cc3nc(C(C)C)cs3)CC2)cc1
  3877	-2.3	2.5	-6.4	-10.6	1.3	4.0
CN1CCN(C(=O)c2cc3cc(Cl)ccc3[nH]2)CC1
  4144	1.3	15.3	7.0	-16.1	-4.9	3.3
O=C(O)c1ccc(-c2sc(Nc3ccccc3)n[n+]2-c2ccccc2)cc1
  2908	-1.0	-1.4	1.7	-11.6	-2.5	3.3
CN(C)C(CNC(=O)c1cc(S(=O)(=O)N(C)c2ccccc2)ccc1Cl)c1ccccc1 (centres undefined)
  3532	6.0	13.6	4.5	-17.3	-14.6	0.4
C/C(=N\OC(=O)c1ccc(C)cc1)c1c(C)nc2cc(C)ccn12
  3800	.	.	.	-1.4	-3.9	.
C/C(=N\Nc1cc(C)nc(NCc2ccccc2)n1)c1cccc([N+](=O)[O-])c1
  4406	.	.	.	14.5	-7.8	.
CN(C)S(=O)(=O)c1cccc(NC(=O)c2ccc3c(c2)S(=O)(=O)N=C2CCCCCN23)c1
  4438	.	.	.	8.0	-6.1	.
O=C1CCc2cc(S(=O)(=O)N3CCC(C(=O)NC4CCCc5ccccc54)CC3)ccc2N1 (centres undefined)
  4925	3.5	.	.	0.6	13.5	-1.2
CCc1ccccc1NC(=O)N1CCCC(CCC(=O)N(C)CCc2ccccn2)C1 (centres undefined)
  2214	3.3	4.5	7.3	-8.3	-6.5	2.3
COC(=O)NN=Cc1cc(Cl)cc(Cl)c1OCc1ccc(F)cc1
  .	-5.0	5.9	6.5	.	.	4.2
O=C(O)CCNC(=O)CCCn1nnc2ccccc2c1=O
  20247*	10.7	-0.4	16.3	-15.3	4.7	3.1
O=C(Nc1ccncc1)c1ccc(NS(=O)(=O)c2cccc(F)c2)cc1
  10153	1.1	-1.1	5.2	-3.2	16.0	-1.2
CN(C)c1nc(C(=O)Nc2ccccc2)nc(N(C)C)n1
  4761	-3.0	.	.	-13.7	-0.8	3.3
CCOC(=O)c1cc2nc(OCC)nc(OCC)c2[nH]1
  3456	-2.7	19.1	13.0	-14.3	.	4.9
CC(=O)c1ccc(N2CCN(C(=O)c3c(-c4ccccc4Cl)noc3C)CC2)cc1
  5817	5.7	3.4	2.4	-5.9	-6.7	4.3
O=C(Nc1cc2c(cc1Cl)OCCCO2)c1ccc(F)cc1
  10170	.	.	.	-101.2	-0.9	.
CC(C)CCNC(=O)C1CCN(Cc2cccc(OCc3ccccc3)c2)CC1
  3856	.	.	.	-29.3	2.6	.
Cc1csc2c(N3CCN(C(=O)Nc4ccc(Cl)c(Cl)c4)CC3)ncnc12
  .	-15.7	2.9	-3.0	-22.4	-3.6	-6.9
C/C(Cn1cnc([N+](=O)[O-])n1)=N\NC(=O)c1ccccc1F
  4374	.	.	.	-20.3	3.3	.
COc1cc(OC)cc(-c2c(C#Cc3ccsc3)c3cc(-c4ccc(OC)c(OC)c4)ccc3n2C)c1
  3892	-1.1	-1.9	3.6	-15.3	.	3.1
Cc1cc(NC(=O)Cn2nnc3sc4c(c3c2=O)CCC(C(C)(C)C)C4)no1 (centres undefined)
  24311*	59.9	11.0	8.2	-12.6	0.8	-3.1
Cc1ccc(-n2c(SCC(N)=O)nnc2-c2ccccn2)cc1
  8526	7.5	6.6	7.2	-8.6	-5.7	2.7
CCCCCCC(C)n1cc(C(C)=O)c(=O)[nH]c1=O (centres undefined)
  9016	-0.4	8.9	9.7	-8.4	-5.1	2.8
Cc1nc(C#N)c(NN=Cc2cccc(Cl)c2)o1
  .	8.6	17.3	4.3	.	.	3.8
CC(C)(C)CC(=O)O/N=C(\N)c1ccccn1
  2437	3.5	.	.	-33.6	0.4	6.5
CC1CC(C)(C)CC(=O)C1C(=O)c1ccccc1 (centres undefined)
  3549	-6.8	-1.2	8.0	-12.2	6.8	-14.8
COc1cc(C=NNC(=O)COc2cc(C)cc(C)c2)ccc1OS(=O)(=O)c1ccc(C)cc1
  .	-16.6	14.1	5.2	.	.	-7.8
O=C(N/N=C(\c1ccccc1)c1ccccn1)c1ccccc1Cl
  4016	.	.	.	27.7	14.9	.
O=C(Cc1ccccc1)N/N=C/c1ccc(Cl)cc1Cl
  23371*	.	.	.	-14.1	-1.3	.
COc1cc(C2CC(=O)Oc3c2c(=O)n(C)c2ccccc32)ccc1O (centres undefined)
  4609	2.2	-1.7	-2.5	-10.9	4.0	4.7

Entries above containing a thiophene ring, fused or not:
The line under a structure holds: Autofluor counter	ugtP null kill	Mtb hypoxia rep	Mtb hypoxia rep growth	PrP 5UTR inh	BJeLR viability	RN4220 kill
COc1ccc(CCNC(=S)NCc2cccs2)cc1OC
  4120	5.5	12.0	17.7	-12.7	1.7	3.7
Cc1ccccc1NC(=O)COC(=O)Cc1ccsc1
  2492	-8.8	-0.1	2.5	-19.2	5.8	-0.8
Cc1csc2c(N3CCN(C(=O)Nc4ccc(Cl)c(Cl)c4)CC3)ncnc12
  .	-15.7	2.9	-3.0	-22.4	-3.6	-6.9
COc1cc(OC)cc(-c2c(C#Cc3ccsc3)c3cc(-c4ccc(OC)c(OC)c4)ccc3n2C)c1
  3892	-1.1	-1.9	3.6	-15.3	.	3.1
Cc1cc(NC(=O)Cn2nnc3sc4c(c3c2=O)CCC(C(C)(C)C)C4)no1 (centres undefined)
  24311*	59.9	11.0	8.2	-12.6	0.8	-3.1

New compounds follow.
The line under a structure holds: Autofluor counter	ugtP null kill	Mtb hypoxia rep	Mtb hypoxia rep growth	PrP 5UTR inh	BJeLR viability	RN4220 kill
Cc1c(NC(=O)C(C)Sc2ncnc3ccccc23)c(=O)n(-c2ccccc2)n1C (centres undefined)
  4956	-6.9	3.8	13.8	40.1	-2.9	0.2
COc1ccc(Nc2cccc(Cl)c2)c(C(=O)O)c1
  2229	-10.6	2.1	0.4	-21.6	-0.4	24.8
CCOc1cc(/C=N/n2c(COc3ccccc3)n[nH]c2=S)ccc1O
  2889	.	.	.	-15.8	1.5	.
CCCCCCN1N=C(C)C(C(=O)c2ccc(Cl)cc2)C1=O (centres undefined)
  3226	3.5	7.2	7.6	-9.5	0.5	16.5
O=C(NC1(C(F)(F)F)NC(=O)N(Cc2cccnc2)C1=O)c1ccccc1 (centres undefined)
  20881*	-1.2	5.9	8.1	-13.5	-5.6	0.5
O=C1N/C(=N/O)S/C1=C/c1cccc([N+](=O)[O-])c1
  2684	0.9	11.1	2.9	-6.7	2.1	7.0
O=P1(c2ccccc2)C=Cn2c1cc1c2CCCC1 (centres undefined)
  5343	-1.4	4.4	8.4	-15.8	-4.6	3.5
O=C(CNC(=O)c1cccs1)NCC(=O)OCc1c(F)cccc1Cl
  4338	-1.1	-1.5	4.4	-13.6	4.0	1.0
CCc1nc(-c2ccccc2)c2ccccn12
  3722	9.8	8.0	7.7	-24.5	2.0	-0.6
COc1ccc(CN(CCC(C)C)S(=O)(=O)c2ccccc2Br)c(OC)c1
  3570	77.3	6.6	7.0	-19.9	.	-1.8
COc1ccc(C(=O)/C=C/Nc2ccc([N+](=O)[O-])cc2)cc1
  2695	-2.2	7.6	7.9	-56.7	4.1	4.2
O=C(COc1ccccc1)OCC(=O)c1ccc(O)cc1O
  6304	13.8	6.8	-6.0	-9.7	.	8.5
O=C(CC1SC(=NCC2CCCO2)NC1=O)Nc1cccc2ccccc12 (centres undefined)
  2447	10.4	-3.6	9.5	1.9	-3.5	2.3
C=CCNC(=O)CSc1nc2sc3c(c2c(=O)n1CCCOC)CCC3
  3374	-0.9	13.6	7.5	-17.6	-3.9	-0.5
O=C(/C=C/c1ccccc1)c1ccc2c(c1)OCCCCO2
  4940	0.8	.	.	-140.0	-3.6	4.2
NS(=O)(=O)c1ccc(CNC(=O)c2ccc(Br)o2)cc1
  4183	-7.8	5.8	5.3	0.0	-2.5	-1.8
